High-throughput results: PubChem BioAssay, National Center for Advancing Translational Sciences (NCATS)
D2 ag = Beta-Arrestin HTS for Positive Allosteric Modulators of the Human D2 Dopamine Receptor: Agonists; D(2) dopamine receptor (Homo sapiens), P14416; DiscoveRx PathHunter D2 beta-arrestin, luminescence, 90 min; 100% = 57 uM dopamine signal; activation, % (no concentration beside the values); hit rate 0.084% among 360,000; AID 624465, 2012; in the data active = activation above about 40%; inconclusive = about 15% to 40%; inactive = below about 15%; also: compound concentration not given in the record; the text of the record calls up to 30% inactive
Target sequence (P14416 whole entry, looked up): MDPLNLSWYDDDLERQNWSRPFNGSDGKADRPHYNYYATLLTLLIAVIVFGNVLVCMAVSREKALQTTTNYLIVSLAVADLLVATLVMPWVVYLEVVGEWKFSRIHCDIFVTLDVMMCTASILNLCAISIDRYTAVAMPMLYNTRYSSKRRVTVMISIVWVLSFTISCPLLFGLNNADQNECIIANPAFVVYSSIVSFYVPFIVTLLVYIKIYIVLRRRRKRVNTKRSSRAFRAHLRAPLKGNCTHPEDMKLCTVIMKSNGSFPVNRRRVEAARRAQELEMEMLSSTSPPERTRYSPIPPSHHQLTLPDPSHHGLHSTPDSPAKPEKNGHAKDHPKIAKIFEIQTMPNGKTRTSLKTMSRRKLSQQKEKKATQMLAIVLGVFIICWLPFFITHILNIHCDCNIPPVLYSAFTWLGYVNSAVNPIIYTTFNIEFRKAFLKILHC
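Agonist mode: compounds alone added to overnight-plated D2 PathHunter cells for 90 min at 37 C, with 57 uM final dopamine (EC100) defining full response. Beta-arrestin recruitment detected by chemiluminescent reagent, read after 1 h at ambient temperature.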
TRPML1 agonist = qHTS for Agonists of the Human Mucolipin Transient Receptor Potential 1 (TRPML1). Mucolipin-1 (Homo sapiens), Q9GZU1. TRPML1-expressing cells, Ca2+ dye fluorescence, FDSS; host cell line not named in the record; reference of the full effect not given here. activation, % (test concentration not listed). hit rate 0.12% among 410,000. AID 624414, 2012; in the data active = activation above about 50%; inconclusive = about 30% to 50%; inactive = below about 30%; also: 0% is about no effect; the text of the record puts the active cut at 80%
Target sequence (Q9GZU1 whole entry, looked up): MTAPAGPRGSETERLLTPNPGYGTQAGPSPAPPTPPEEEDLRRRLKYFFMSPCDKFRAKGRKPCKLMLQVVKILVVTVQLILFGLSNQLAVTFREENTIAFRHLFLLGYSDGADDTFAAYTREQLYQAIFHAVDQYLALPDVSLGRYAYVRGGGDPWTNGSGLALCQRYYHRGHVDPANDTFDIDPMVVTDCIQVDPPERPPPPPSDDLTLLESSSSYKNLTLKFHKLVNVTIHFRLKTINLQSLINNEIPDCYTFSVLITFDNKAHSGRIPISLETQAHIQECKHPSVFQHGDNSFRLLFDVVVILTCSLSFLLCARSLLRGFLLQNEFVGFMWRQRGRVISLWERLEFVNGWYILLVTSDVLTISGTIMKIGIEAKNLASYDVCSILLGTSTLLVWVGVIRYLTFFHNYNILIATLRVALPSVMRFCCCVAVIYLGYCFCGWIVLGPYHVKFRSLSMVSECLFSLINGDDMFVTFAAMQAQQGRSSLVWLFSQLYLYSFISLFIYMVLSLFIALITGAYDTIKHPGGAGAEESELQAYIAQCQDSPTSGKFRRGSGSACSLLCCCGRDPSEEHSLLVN
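Tetracycline-induced TRPML1-DL cells are seeded and incubated overnight before loading with a no-wash Ca2+ dye and quencher. Agonist activity is taken from the 110 s fluorescence read following compound pin-transfer on an FDSS, before EC80 54-4 challenge.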
Six1-Eya2 inh = qHTS Assay for Inhibitors of the Six1/Eya2 Interaction; AlphaScreen GST-Six1/His-Eya2 binding, biochemical; stronger effect = lower value; control for the full effect not named in the record; hit rate 0.56% among 360,000; Homeobox protein SIX1 (Homo sapiens) + Protein phosphatase EYA2 (Homo sapiens), …; activity change, % (concentration not given with the values); in the data active = activity change below about -65%; inconclusive = about -30% to -65%; inactive = above about -30%; also: % is scaled to controls: 0 for no effect and ±100 for the full control effect
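GST-Six1 + His-Eya2 (5X stock: 250/500 nM); Tris pH 8.0, 300 mM NaCl, 0.05% BSA, 0.02% Tween 20; GSH donor/Ni acceptor beads; 1 h 37 °C dark; AlphaScreen readout.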
PINK1 expr mod = A Quantitative High throughput Screen to Identify Chemical Modulators of PINK1 Expression. Potency, µM (doses to about 76.6 µM), without a hit: top-dose activation (PINK1 increase), most hits filed as activators. hit rate 0.2% among 410,000. PINK1 immunofluorescence, high-content cytometry, 24 h. AID 624263, 2012; active = well fitted activation curve with a large enough effect; inconclusive = small, poorly fitted or top-dose-only effect; inactive = flat fitted curve, though single readings scatter; cell line not stated here;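 also: potency is read from the fitted curve at half-maximal effect; % of control where 0% means no effect; nearly all actives have a fitted effect of over 65% in size; a mitochondrial uncoupler was the plate control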
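Cells are seeded, rested 12 hours, then given compound at five concentrations or DMSO for 24 hours. After fixation, blocking and antibody staining, PINK1 amount and mitochondrial localization are scored; CCCP serves as control.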
CtBP-E1A inh = qHTS Assay for Inhibitors of the CtBP/E1A Interaction; CtBP / adenovirus E1A interaction (AlphaScreen); AlphaScreen GST-E1A/His-CtBP binding, 1536-well; stronger effect = lower value; control for the full effect not named in the record; activity change, % (no concentration beside the values); hit rate 0.49% among 340,000; in the data active means activity change below about -65%; inconclusive means about -30% to -65%; inactive means above about -30%; also: % is scaled to controls: 0 for no effect and ±100 for the full control effect; compound concentration not given in the record
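In 5 uL wells, 23 nL compound meets equimolar GST-E1A and His-CtBP (5X stock 125 nM each) for 2 h, 37 °C. Beads (5X, 50 ug/mL) then 1 h, 37 °C, dark.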
D2 potentiator = Beta-Arrestin HTS for Positive Allosteric Modulators of the Human D2 Dopamine Receptor: Potentiators | D(2) dopamine receptor (Homo sapiens), P14416 | DiscoveRx D2 beta-arrestin cells, luminescence, 90 min; 100% = 57 uM dopamine signal | potentiation, % (concentration not given with the values) | hit rate 0.23% among 360,000 | AID 624464, 2012; active = potentiation of 50% or more; inconclusive = 30% to 50%; inactive = 30% or less;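 also: compound concentration not given in the record; tested on top of an EC20 dose of dopamine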
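D2 cells co-treated with compound plus 50 nM dopamine (EC20) for 90 min at 37 deg C to detect potentiation. Beta-arrestin recruitment was read as enzyme-fragment luminescence after 1 h at ambient temperature. Full response was set by 57 uM dopamine.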
Numbers without * were called inactive; ? = inconclusive; . = no result given; [ ] = dose if it differs, or a comment.

SMILES	D2 ag	TRPML1 agonist	Six1-Eya2 inh	PINK1 expr mod	CtBP-E1A inh	D2 potentiator
C/C(=N/OCC(=O)Nc1ccc(C)cc1C)c1cccs1	-2.7	-0.5	9.6	-0.3%	9.2	0.1
COc1ccc(O)c(/C=C(\C#N)C(=O)Nc2ccccn2)c1	-1.9	0.9	8.0	0.6%	-2.8	-7.8
CN(Cc1ccccc1)C(=O)COc1ccc(C(C)(C)C)cc1	-3.7	2.4	17.0	3.9%	.	-4.3
O=C(NCCc1ccc(Cl)cc1)C1CC(=O)N(C2CCCCC2)C1 (stereo not given)	-4.7	-0.3	-4.7	2.5%	5.2	-13.3
Cc1ccc2cc(CN(CC3CCCO3)S(=O)(=O)c3cccc4nsnc34)c(=O)[nH]c2c1 (stereo not given)	-1.3	1.5	-4.1	1.5%[38.3 µM]	13.0	-6.4
CCOC(=O)N1CCN(c2nc(SC)nc3sc4c(c23)CC(C)(C)OC4)CC1	0.0	-1.0	-0.5	2.8%	1.3	-10.8
COC(=O)c1cc(C)cc(=O)o1	-1.4	0.6	5.0	0.3%	1.0	-3.3
COc1cc(NC(=O)C2(C)CCCN2C)cc(OC)c1OC (stereo not given)	-6.2	-0.9	14.8	1.2%	0.0	2.8
Cn1cnnc1SCC(=O)Nc1ccc2nc(SCc3ccccc3F)sc2c1	4.2	0.3	-5.7	2.6%[38.3 µM]	-1.7	12.3
COc1ccc(OC)c(NC(=O)CCCNC(=O)Cn2cnc3sc(C)c(C)c3c2=O)c1	-7.6	-1.4	-28.9	3.9%	0.0	-12.0
COc1cccc(C2=NN(C(=O)c3ccccc3)C(O)(C(F)(F)F)C2)c1 (stereo not given)	-4.4	0.4	-2.3	-0.4%	2.0	-6.9
Cn1nc(C(F)(F)F)c(C(=O)Nc2ccc(F)cc2F)c1Sc1cccc(Cl)c1	0.8	4.2	20.2	15.5%[38.3 µM]	12.8	-6.3
O=C(NC(=O)c1ccc(Cl)c(Cl)c1)OC1CCS(=O)(=O)C1 (stereo not given)	-4.8	-0.3	1.8	-9.4%[38.3 µM]	8.3	-10.0
OCCN(CCCn1c(-c2ccncc2)nc2ccccc21)c1nc(CN2CCCCC2)cs1	-4.6	-0.2	0.6	0.0%	2.7	-15.5
O=C(CSc1ncnc2sccc12)N1CCN(C(=O)c2cccs2)CC1	-2.7	0.3	-2.0	-3.4%	-3.3	4.7
CCC(C)NC(=O)c1cc(Cl)ccc1OC (stereo not given)	-3.6	-0.1	10.4	-4.5%	0.5	-11.5
O=C1C(=Cc2ccc(Cl)cc2)CCc2ccccc21	-3.7	-0.5	0.6	3.2%	2.5	0.0
CCc1c(C)sc(NC(=O)/C=C/C(=O)O)c1C(N)=O	-2.6	0.8	2.7	0.1%	.	-1.1
COc1ccc(NC(=O)c2sc3nc(N4CCOCC4)c4c(c3c2N)CC(C(C)C)OC4)c(OC)c1 (stereo not given)	6.2	-0.2	-1.8	2.1%	0.3	-2.1
O=C(CSc1nc2ccsc2c(=O)n1Cc1ccccc1)NCC1CCCO1 (stereo not given)	-4.4	-0.9	26.5	3.4%	21.3	3.4
CC(=O)OCCNC(=O)c1cccnc1	1.0	-0.4	-4.9	11.9%[38.3 µM]	-0.3	-4.8
CCN(CC)S(=O)(=O)c1ccc(-c2nnc(SCC(C)=O)o2)cc1	0.8	0.0	4.6	0.3%	-1.7	7.9
Nc1cc[n+](CC(=O)c2ccccc2)cc1	-1.5	.	3.4	1.0%	.	-11.8
CCOCCCNC(=O)c1c(-c2ccccc2)noc1C	0.2	3.4	4.2	-1.9%	-1.1	23.7
Cc1oc2c(C)c3oc(=O)c(CCC(=O)N4C[C@H]5C[C@@H](C4)c4cccc(=O)n4C5)c(C)c3cc2c1C	-5.5	.	-14.1	1.3%	-0.1	-24.6
COC(=O)c1sc(NC(=S)NNC(=O)c2c(Br)c(C)nn2C)c(C(=O)OC)c1C	-2.5	-0.3	-20.2	?	-20.4	-3.3
CCN(CC)C(=O)COc1ccc(S(=O)(=O)N2CCCC2)cc1	-5.4	0.2	4.2	2.7%	1.1	-1.0
CCOc1ccccc1OCCC(=O)Nc1ccc(F)c(Cl)c1	-1.2	1.0	0.1	5.2%	1.1	-32.6
Cc1cc(C)c2cc3c(N)c(C(=O)Nc4c(C)[nH]c(=O)[nH]c4=O)sc3nc2c1	-3.1	3.7	-71.5*	?	-14.4	3.2
NC(=O)c1cccnc1	-6.9	0.5	-14.7	0.8%	-4.8	-14.4
COc1ccc(-c2[nH]ncc2CNC(C)c2ccccc2Cl)cc1F (stereo not given)	-3.9	0.2	-2.9	4.6%	2.0	-12.3
CCc1c(C)nc(SCCOc2ccc(OC(C)C)cc2)[nH]c1=O	-5.1	0.7	-3.7	2.6%	5.1	-3.0
CC(C)c1ccccc1NC(=S)NCC1(N(C)C)CCCCC1	-3.3	0.7	-8.0	1.0%	-8.5	-9.5
CC(=O)Nc1ccc(S(=O)(=O)NC(C(=O)O)C(C)O)cc1 (stereo not given)	-5.8	.	1.6	0.0%	6.7	1.6
O=C(Cn1cc2c(n1)CCCC2)N1CCc2ccccc21	4.8	-0.3	-1.3	-0.2%	0.8	-0.4
CCOC(=O)C(C)n1ncn2cccc2c1=O (stereo not given)	2.4	0.7	8.1	0.7%	3.8	-2.8
CNc1ncnc(NC)c1[N+](=O)[O-]	0.4	-0.3	-6.2	3.5%	-4.3	-2.9
Cc1ccc(NC(=O)NNC(=O)CN2C(=O)COc3ccccc32)cc1	-2.4	0.0	0.3	0.9%	-5.6	-11.1
COc1ccc(S(=O)(=O)N2CCCCC2)cc1NC(=O)c1ccc(C)cc1	10.9	4.3	3.2	6.0%	-2.4	-0.6
Cc1cc(C)c(NC(=O)COC(=O)CCn2c(C)csc2=O)c(C)c1	-6.6	-1.0	2.1	1.6%	28.0	-23.0
CCN1CCN(c2ccc([N+](=O)[O-])cc2C(=O)c2ccc(Cl)cc2)CC1	-4.5	-0.2	-5.8	5.5%	-3.8	-50.2
CCC(C)N(C(=O)CSc1nc(C)nc2ccccc12)C1CCS(=O)(=O)C1 (stereo not given)	-3.9	-0.2	-4.3	-1.0%	8.1	-7.7
O=C1NC[C@H](Cc2ccccc2)N(CC2CCN(CC3CCCC3)CC2)C1=O	-2.3	-0.5	7.3	0.6%	-23.4	-6.1
COc1ccc2nc(SCCN(C)C)[nH]c2c1	-0.1	0.8	1.5	-0.5%	-2.5	-4.0
CCCN1C(=O)c2cc(C(=O)Nc3ccc(OC)c(OC)c3)ccc2C1Nc1ccc(OC)c(OC)c1 (stereo not given)	1.6	-0.5	-13.3	-0.1%	0.0	-0.3
O=C(Nc1nccs1)c1cn(-c2ccccc2)nc1-c1ccccc1	-2.1	-0.2	-0.7	3.5%	2.7	-25.0
Nn1c(SCc2ccc(C(=O)O)cc2)nnc1-c1ccc(Cl)cc1Cl	-5.4	.	-4.1	1.9%	6.9	-2.0
N#Cc1cc2c(nc1Cl)CCC2	-5.0	-0.4	9.5	1.7%	.	-22.6
CCOC(=O)c1sc(-c2ccc(OC)cc2)cc1NC(C)=O	0.9	1.5	5.9	0.6%	.	-4.2
COc1ccc(C)cc1S(=O)(=O)N(CC(=O)Nc1cccc([N+](=O)[O-])c1)c1ccccc1	3.8	-0.3	-17.1	3.6%	-8.3	-10.6
NC(=S)Nc1cc(Cl)cc(Cl)c1	-1.4	0.1	-1.6	-0.9%	1.8	-7.0
CCc1[nH]nc2c1C(C(C)C)C(C#N)=C(N)O2 (stereo not given)	-2.8	-0.6	-0.5	0.1%	8.1	-10.3
CCOC(=O)C1CCCN(C(=S)NC(=O)/C=C/c2ccc(F)cc2)C1 (stereo not given)	-5.8	0.6	-0.9	0.5%	.	-5.2
O=C(CCn1c(=O)oc2ccccc21)N1CCN(c2ccccc2Cl)CC1	-4.9	-0.8	-9.1	0.6%	2.7	-16.2
O=C(N/N=C/c1ccncc1)C1CC1C(=O)N/N=C/c1ccncc1 (stereo not given)	1.8	0.8	-7.5	-0.1%	2.6	5.8
CCC(=O)Nc1ccc(S(=O)(=O)N2CCCCC2)cc1OC	-3.4	0.3	1.7	7.4%[38.3 µM]	-2.7	-9.0
CS(=O)(=O)N1CCC(C(=O)Nc2ccc(OCc3ccccc3)cc2)CC1	-1.5	0.1	5.7	2.6%[38.3 µM]	1.9	-0.7
COc1ccc2sc(-c3ccccc3OC)c(-c3ccc(OCCN4CCOCC4)cc3)c2c1	?	0.4	-17.7	-0.7%	-24.0	.
CCn1ncc(CNC(=O)C2(C)CC2(Cl)Cl)c1C (stereo not given)	-3.7	0.0	1.7	-3.5%	0.6	-10.8
Cc1occc1-c1nnc(SCC(=O)NC2CCCC2)n1-c1ccccc1	-2.8	-0.8	-1.2	-0.9%	-0.4	-13.2
(list continues)
SMILES	D2 ag	TRPML1 agonist	Six1-Eya2 inh	PINK1 expr mod	CtBP-E1A inh	D2 potentiator
Clc1ccc(SCc2cc(-c3ccccc3)on2)cc1	1.2	2.1	32.0	7.3%	30.5	-18.6
CCC(C)C(NC(=O)OCc1ccccc1)C(=O)NC(Cc1ccc(O)cc1)C(=O)OC (stereo not given)	-2.2	1.3	-14.4	0.1%	0.0	-17.3
CC(Oc1ccc2ccc(=O)oc2c1)C(=O)c1ccccc1 (stereo not given)	1.5	-0.8	-2.1	0.2%	8.1	-9.9
Cc1noc(C)c1CSCC(=O)N(C)CC(=O)Nc1ccccc1Cl	-1.5	-0.1	4.0	-1.4%	3.7	1.1
